Source: PubChem BioAssay
FGF22 binding: binders of human FGF22 protein, primary screen, FGF22 synaptogenesis inhibitor project, biophysical, thermal shift, single point | AID 651658, 2012 | recombinant FGF22 thermal shift, SYPRO orange fluorescence; percent of sucrose octasulfate shift, DMSO zero | actives 1.5% (n = 340,000) | calls only at 9.99 µM;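 active = melting point raised past a set limit in the mean and every replicate; three in four hits are not shown here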
Target sequence (Q9HCT0 whole entry, looked up): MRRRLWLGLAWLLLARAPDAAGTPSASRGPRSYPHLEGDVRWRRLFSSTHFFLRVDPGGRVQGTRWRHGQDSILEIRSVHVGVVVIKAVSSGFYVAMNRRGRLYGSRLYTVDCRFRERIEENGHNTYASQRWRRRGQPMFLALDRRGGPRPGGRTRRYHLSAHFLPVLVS
Beta2AR agonist: beta2AR agonists driving receptor internalization, primary screen, cell-based, FAP fluorogen, flow cytometry; Beta-2 adrenergic receptor (Homo sapiens), P07550; Am2.2-beta2AR cells; reference of the scale not given here; response, % (concentration not given with the values); actives 0.43% (n = 340,000); AID 504454, 2011;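 active = response above a set limit, near 3 SD of response in nonfluorescent compounds, cut at about 42% in these data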;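 note: stock transfer was 100 nL into about 11 µL; a reference agonist was the positive control; negative values mostly stem from fluorescent compounds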
E coli growth: E. coli growth inhibition, primary screen, OD600; Escherichia coli growth, 23 h; stronger effect = lower value; OD600 absorbance (test concentration not listed); actives 0.21% (n = 330,000); AID 1053175, 2014;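 active = OD600 absorbance below the run mean of sample wells minus 3.6 SD, in any replicate, cut at about 0.56 in these data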;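 note: stock transfer was 300 nL into about 60 µL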
ALR inh: inhibitors of human ALR sulfhydryl oxidase, primary screen, biochemical, H2O2 detection, HRP-luminol luminescence, single point; FAD-linked sulfhydryl oxidase ALR (Homo sapiens), P55789; purified ALR, DTT oxidation; inhibition, % (no concentration beside the values); actives 3.8% (n = 290,000); AID 485317, 2010;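 active = mean and each replicate at 75% or more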;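 note: stock transfer was 7.5 nL into about 7.5 µL; 0% = neutral wells and 100% = wells with inactivated enzyme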
Target sequence (P55789 whole entry, looked up): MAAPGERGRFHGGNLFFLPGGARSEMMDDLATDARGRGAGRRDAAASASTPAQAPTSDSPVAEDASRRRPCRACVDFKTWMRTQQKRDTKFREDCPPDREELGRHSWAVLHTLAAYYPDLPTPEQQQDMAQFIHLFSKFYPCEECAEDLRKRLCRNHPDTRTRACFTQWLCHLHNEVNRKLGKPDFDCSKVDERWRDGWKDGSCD
UCH37 DUB inh: inhibitors of human UCH37 deubiquitinase, primary screen, biochemical, Ub-AMC cleavage, fluorescence; purified proteasome/UCH37; actives 0.33% (n = 330,000); inhibition, % (no concentration beside the values);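 active = mean of two replicates above 20%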;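 note: 0% = compound-free wells with enzyme and 100% = wells lacking proteasome; stock transfer was 100 nL into about 20 µL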
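Schedule: 30 min plus 25 min, room temperature / Material: human UCH37 within purified proteasomes / Technique: AMC fluorescence intensity at 355/460 nm / Buffer or medium: pH 7.4 Tris-HCl (50 mM) with ovalbumin, ATP-MgCl2, DTT / Controls: wells without proteasome as full block, compound-free enzyme plus substrate as uninhibited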
HNF4A DNA FP: change in binding of human HNF4A to DNA, primary screen, biochemical, fluorescence polarization, FITC-DNA; Hepatocyte nuclear factor 4-alpha (Homo sapiens), P41235; 1 h; activity change, % at 10 µM; actives 0.3% (n = 360,000); AID 1224865, 2016; in the data active = activity change above about 30%, passing the limit was not always enough;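 note: controls were the assay level and a saturating level of protein; the project sought stronger binding though the title names inhibitors; some compounds called inactive have numbers as strong as hits; positive values seem to mean higher polarization but the record does not say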
Target sequence (P41235 whole entry, looked up): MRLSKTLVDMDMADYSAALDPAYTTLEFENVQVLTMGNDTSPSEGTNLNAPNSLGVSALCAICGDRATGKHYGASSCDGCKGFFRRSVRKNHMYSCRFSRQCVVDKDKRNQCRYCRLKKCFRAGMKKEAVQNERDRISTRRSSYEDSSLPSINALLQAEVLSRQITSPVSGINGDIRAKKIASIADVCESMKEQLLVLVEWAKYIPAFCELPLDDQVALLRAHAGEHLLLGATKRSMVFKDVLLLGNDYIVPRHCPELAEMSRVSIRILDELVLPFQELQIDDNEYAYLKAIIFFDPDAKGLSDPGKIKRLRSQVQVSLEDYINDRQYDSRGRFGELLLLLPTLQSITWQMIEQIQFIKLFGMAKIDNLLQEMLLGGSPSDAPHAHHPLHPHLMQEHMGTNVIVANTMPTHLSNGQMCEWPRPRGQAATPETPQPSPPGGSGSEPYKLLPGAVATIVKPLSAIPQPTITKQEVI
rRNA inh HTS: reduced GFP signal of wild-type E. coli, primary screen, bacterial rRNA inhibitor project, GFP/RFP fluorescence, OD600, single point; E. coli WT GFP vs humanized-ribosome RFP mutants, 24 h; stronger effect = lower value; DMSO median 0, no signal -100; GFP signal change (wild-type ribosome), % (test concentration not listed); actives 1.6% (n = 350,000); AID 720706, 2013;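 active = significant combined selectivity score with lowered wild-type GFP, culture density cut under 30%, mutant RFP and density less affected; inactive = any of these conditions unmet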; note: one replicate is shown; some compounds called inactive have numbers as strong as hits
rRNA inh HTS OD600: also measured in rRNA inh HTS; calls as there; OD600 change, %; measured here: OD600 growth;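 optical density of the mix in the first replicate; 0 = DMSO median and -100 = no signal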
rRNA inh HTS RFP: recorded beside rRNA inh HTS, whose call it bears; RFP signal change, %; measured here: RFP humanized mutant strains;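 first replicate; 0 = DMSO median and -100 = no signal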
Numbers without * were called inactive; i = inactive; / = not tested or not shown; & = joins results of further samples. Some of the compounds tested; the hit share may differ from the screen's.

SMILES	FGF22 binding	Beta2AR agonist	E coli growth	ALR inh	UCH37 DUB inh	HNF4A DNA FP	rRNA inh HTS	rRNA inh HTS OD600	rRNA inh HTS RFP
Cc1cccc(NC(=O)c2ccccc2SCc2ccc(F)cc2)n1	i	-1	0.72	/	-0.5	2.9	3	0	-1.3
O=C(NC(Cc1ccccc1)C(=O)NC1CC1)OCc1ccccc1 (stereo not drawn)	i	-1	0.7	/	0.1	0.6	22	19	6.5
CC1C(=O)N2CCCc3cc(NC(=O)COc4ccccc4)cc1c32 (stereo not drawn)	i	-7	0.68	-4	3.3	0.3	-2	-4	-0.4
COCCn1nnnc1CN1CCSCC1	i	-24	0.66	-9	-1.0	5.1	9	9	-1.4
COc1ccc(-c2cc(C(=O)N3CCOCC3)c3ccccc3n2)cc1OC	i	3	0.7	-1	3.9	3.2	7	-7	1.4
CCOC(=O)C1(CCc2ccccc2)CCN(C(=O)CCn2cncn2)CC1	i	2	0.77	-4	-0.8	1.2	0	-1	2.1
CN(C(=O)CSc1nnc(-c2ccc(Cl)cc2)n1C)C1CCS(=O)(=O)C1 (stereo not drawn)	i	-3	0.69	/	5.0	10	23	15	3.2
Cc1cc(N2C(=O)C(O)=C(C(=O)c3ccc(C)o3)C2c2ccc([N+](=O)[O-])cc2)no1 (stereo not drawn)	i	6	0.7	97*	9.1	2.3	3	4	-0.8
Cc1ccc(S(=O)(=O)c2c(N)n(Cc3ccco3)c3nc4ccccc4nc23)cc1C	/	-7	0.69	-68	-238	-6.9	0	-5	20
O=C(/C=C/c1cccnc1)/C=C/c1cccnc1	i	67*	0.63	/	5.2	1.9	-5	-5	-5.6
Nc1ncnc2c1ncn2C1OC(CO)C(O)C1N (stereo not drawn)	i	2	0.71	-21	-4.2	-1.3	/	/	/
CC(C)(CO)CNC(=O)CC1C(=O)NCCN1CC(c1ccccc1)c1ccccc1 (stereo not drawn)	/	5	0.69	-47	-3.6	-1.9	6	3	-2.5
CN(C1CCCCC1)S(=O)(=O)c1ccc(NC(=O)C2CCCCC2)cc1	/	21	0.73	-5	3.2	2.0	/	/	/
COc1cccc(CNC(=O)c2ccc(S(=O)(=O)N3CCOCC3)cc2)c1	i	-6	0.69	/	1.6	5.0	-1	0	-0.2
C[C@@H]1CN([C@H](C)CO)C(=O)c2cc(-c3ccc(C(=O)N(C)C)cc3)cnc2O[C@@H]1CN(C)C(=O)c1cccnc1	i	/	/	/	/	0.6	6&5	8&1	-0.2&-1.0
O=C(Nc1cc(C(F)(F)F)ccc1N1CCCCC1)c1ccco1	/	7	0.78	-3	-15	-1.3	/	/	/
CO/N=C/c1ccc(OC)c(Oc2nc(OC)cc(OC)n2)c1	i	-2	/	-14	/	-0.9	11	10	-1.4
COc1cc2c(=O)n(CC3CCCO3)c(=O)n(CC(=O)Nc3ccccc3)c2cc1OC (stereo not drawn)	i	0	0.73	/	-16	-1.4	0	14	-0.1
CC(C)CNC(=S)Nc1ccccc1F	i	-5	0.69	56	-1.2	2.0	9	4	-2.4
CC(=O)Nc1ccc(OCc2ccccc2)cc1[N+](=O)[O-]	i	-15	/	/	/	0.8	-9	4	2.3
COc1ccc(S(=O)(=O)N2CCCCC2)cc1NC(=O)C1CCCC1	i	-8	/	2	/	1.6	4	4	1.8
Cc1ccc(-c2ccc(/C=N/NC(=O)CN3CCOCC3)o2)cc1[N+](=O)[O-]	i	-12	/	43	/	3.8	3	0	-5.2
O=C(Nc1ccc(F)cc1F)c1cc(-c2ccc3c(c2)OCO3)on1	i	-1	0.67	/	-10	0.7	7	20	0.5
CCc1cc(C(=O)NNC(=S)NCC2CCCO2)cs1 (stereo not drawn)	/	-8	0.73	29	2.9	2.1	/	/	/
CC(=O)NC(C(=O)OCC(=O)N(c1ccccc1)c1ccccc1)C(C)C (stereo not drawn)	i	2	0.7	/	-2.2	-2.4	7	7	7.3
Cc1cccc(N(C2C=CS(=O)(=O)C2)S(=O)(=O)c2ccccc2)c1 (stereo not drawn)	/	-1	0.7	/	-1.6	3.8	/	/	/
COc1ccc(CNS(=O)(=O)c2c(C(=O)N3CCCCC3)c(C)n(C)c2C)cc1	i	-1	0.73	-2	3.9	1.1	3	9	1.4
COc1cc(/C=C(/C#N)C(=O)NC(C)c2ccccc2)cc(OC)c1O (stereo not drawn)	i	8	0.65	34	10.0	2.6	-3	-4	2.0
O=C(N/N=C/c1ccc(O)cc1O)/C(=C/c1ccccc1)CCO	/	-6	/	81*	/	0.8	/	/	/
O=C(COc1ccc(Cl)cc1)N1CCN(C(=O)c2cccc(F)c2)CC1	/	-4	0.71	4	1.9	1.5	/	/	/
CC1=C(C(N)=O)C(c2ccccn2)n2nc(SCc3ccccc3Cl)nc2N1 (stereo not drawn)	/	-1	0.7	/	4.3	0.5	/	/	/
O=C(Nc1ccccc1Cl)c1ccccc1Cl	i	-7	0.66	-16	0.6	5.0	0	4	0.5
CC/C(=N\NC(=S)NC(C)C)c1ccc(OC)c(OC)c1	i	6	/	18	/	0.6	-4	3	-3.7
CCOC(=O)c1ccc(NS(=O)(=O)c2cn(C)cn2)cc1	i	-4	0.69	-3	4.8	-5.6	6	10	0.6
O=C(NCCc1ccc(F)cc1)c1cccs1	/	2	0.74	-1	2.6	-2.1	/	/	/
COc1ccc(NC(=O)CCCOc2ccc(C)cc2)cc1S(=O)(=O)N1CCCCC1	i	/	/	/	/	-3.3	2	11	2.1
CN(C)CCN1CCN([C@H]2CS(=O)(=O)N[C@@H]2COCc2ccccc2)CC1	i	/	/	/	/	0.5	1	13	-2.4
CC/C(C)=N/Nc1nc2c(c(=O)[nH]c(=O)n2C)n1Cc1ccccc1	i	12	/	14	/	0.2	0	2	-0.3
CCOc1cccc(/C=N/NC(=O)c2ccc3c(c2)OCCO3)c1O	i	9	/	90*	/	-2.0	-42	-67	-13
O=C(c1cc(COc2c(F)cccc2F)on1)N1CCN(C2CCCCC2)C(=O)C1	i	-11	0.7	-1	3.4	-3.2	-2	2	1.6
COc1ccc(CNC(=O)Nc2cccs2)cc1OC	/	13	0.71	5	-0.9	1.3	/	/	/
CCN1CCN(C(=O)CCNC(=O)Cn2ccc3ccccc3c2=O)CC1	/	2	0.71	-2	2.4	-2.5	/	/	/
CCCCc1c(O)nc(SCC(=O)N2CCCCC2)[nH]c1=O	i	-9	0.61	21	4.7	0.9	21	20	2.1
COCCCNC(=S)NCCNc1nc2c(C)c(C)ccc2cc1C#N	i	-5	0.68	/	-34	4.7	-17	-7	12
Cc1ccc(S(=O)(=O)N2CCN(CCO)CC2)cc1-c1nnc2c3ccccc3c(C)nn12	/	-4	0.68	-29	1.5	4.9	/	/	/
C[C@@H]1CN([C@@H](C)CO)S(=O)(=O)c2ccc(Br)cc2O[C@H]1CN(C)C(=O)C1CCCCC1	i	/	/	/	/	-2.2	-15&-6	-26&-18	-5.3&-0.5
CNc1nc(-c2ccccc2)nnc1C(F)(F)F	/	-9	0.63	0	1.7	2.2	/	/	/
CCN(CC)CC(=O)Nc1c(Br)ccc2c1OCO2	/	-1	0.71	/	1.5	0.5	/	/	/
CCC1(c2ccccc2)SCC(c2ccccc2)=NC1=O (stereo not drawn)	i	6	0.66	/	5.2	-0.4	-5	2	2.7
COc1ccccc1CN1CC(=O)N2CSC[C@H]2C1=O	i	2	0.66	-3	-0.7	4.4	6	8	-0.7
CCCCC1NC(=S)N(C2CCCCC2)C1=O (stereo not drawn)	i	3	0.7	3	2.1	0.1	6	5	4.9
O=C(COc1ccc2c3c(c(=O)oc2c1)CCC3)Nc1ccc(CN2CCOCC2)cc1	i	-1	0.64	-1	-7.2	2.0	-7	-1	0.1
COc1ccc(NC(=O)CSc2ccccc2)cc1S(=O)(=O)N1CCCCC1	i	-2	0.66	-8	2.4	8.3	-3	-13	0.4
CCC(=O)c1ccccc1OCC(=O)Nc1c(C)cccc1C	i	8	0.7	-1	1.3	1.2	5	6	-1.4
COc1cc(C#N)c(NC(=S)N2CCN(C(=O)c3ccco3)CC2)cc1OC	i	/	/	/	/	4.5	1	1	0.0
Cn1c(=S)n(C)c2ccccc21	i	-6	0.69	1	4.1	-2.0	23	10	1.2

Structures shown so far that have fluorine (8):
SMILES	FGF22 binding	Beta2AR agonist	E coli growth	ALR inh	UCH37 DUB inh	HNF4A DNA FP	rRNA inh HTS	rRNA inh HTS OD600	rRNA inh HTS RFP
Cc1cccc(NC(=O)c2ccccc2SCc2ccc(F)cc2)n1	i	-1	0.72	/	-0.5	2.9	3	0	-1.3
O=C(Nc1cc(C(F)(F)F)ccc1N1CCCCC1)c1ccco1	/	7	0.78	-3	-15	-1.3	/	/	/
CC(C)CNC(=S)Nc1ccccc1F	i	-5	0.69	56	-1.2	2.0	9	4	-2.4
O=C(Nc1ccc(F)cc1F)c1cc(-c2ccc3c(c2)OCO3)on1	i	-1	0.67	/	-10	0.7	7	20	0.5
O=C(COc1ccc(Cl)cc1)N1CCN(C(=O)c2cccc(F)c2)CC1	/	-4	0.71	4	1.9	1.5	/	/	/
O=C(NCCc1ccc(F)cc1)c1cccs1	/	2	0.74	-1	2.6	-2.1	/	/	/
O=C(c1cc(COc2c(F)cccc2F)on1)N1CCN(C2CCCCC2)C(=O)C1	i	-11	0.7	-1	3.4	-3.2	-2	2	1.6
CNc1nc(-c2ccccc2)nnc1C(F)(F)F	/	-9	0.63	0	1.7	2.2	/	/	/
